Screening results (PubChem BioAssay)
D2 potentiator: potentiates the human D2 dopamine receptor allosterically | P14416 | DiscoveRx D2 beta-arrestin cells, luminescence, 90 min; 100% = 57 uM dopamine signal | potentiation, % (no concentration beside the values) | hit rate 0.23% among 360,000; active = potentiation of 50% or more; inconclusive = 30% to 50%; inactive = 30% or less;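 also: compound concentration not given in the record; tested on top of an EC20 dose of dopamine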
Target sequence (P14416 whole entry, looked up): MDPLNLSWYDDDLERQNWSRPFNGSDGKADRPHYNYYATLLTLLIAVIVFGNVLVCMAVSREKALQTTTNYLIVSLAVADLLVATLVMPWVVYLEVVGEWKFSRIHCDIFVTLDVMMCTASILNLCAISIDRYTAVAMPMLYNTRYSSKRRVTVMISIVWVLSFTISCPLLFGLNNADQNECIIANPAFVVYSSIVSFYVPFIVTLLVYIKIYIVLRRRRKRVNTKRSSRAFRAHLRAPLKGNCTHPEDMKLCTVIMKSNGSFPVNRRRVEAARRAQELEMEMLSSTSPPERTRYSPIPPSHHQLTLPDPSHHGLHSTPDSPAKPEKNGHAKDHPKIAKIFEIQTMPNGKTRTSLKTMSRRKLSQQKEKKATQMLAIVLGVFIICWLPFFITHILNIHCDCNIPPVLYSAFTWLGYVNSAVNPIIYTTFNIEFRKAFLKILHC
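PathHunter D2 cells, attached overnight at 37 deg C, received compound in DMSO plus dopamine at EC20 (50 nM final) for 90 min at 37 deg C. Beta-arrestin recruitment was read as luminescence after 1 h with detection reagent at ambient temperature.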
Six1-Eya2 blk: inhibitors of human Six1/Eya2 interaction; Q15475+O00167; AlphaScreen GST-Six1/His-Eya2 binding, biochemical; hits give low values; control for the full effect not named in the record; activity change, % (no concentration beside the values); hit rate 0.56% among 360,000; AID 651725; in the data active = activity change below about -65%; inconclusive = about -30% to -65%; inactive = above about -30%; also: % is scaled to controls: 0 for no effect and ±100 for the full control effect; compound concentration not given in the record
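AlphaScreen with GST-Six1 and His-Eya2 (5X mix: 250 nM and 500 nM), glutathione donor and nickel acceptor beads; buffer 50 mM Tris pH 8.0, 300 mM NaCl, 1 mM TCEP; 1 h at 37 C in the dark.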
TRPML1 blocker: blocks the human TRPML1 channel; Q9GZU1; TRPML1-inducible cells, Ca2+ dye fluorescence, FDSS; hits give low values; inhibition of EC80 agonist-evoked calcium signal; activity change, negative = inhibition, % (no concentration beside the values); hit rate 0.02% among 390,000; AID 624415; in the data active means activity change below about -50%; inconclusive means about -30% to -50%; inactive means above about -30%;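 also: stimulus is agonist 54-4 at its EC80 concentration; % is scaled to controls: 0 for no effect and ±100 for the full control effect; compound concentration not given in the record; the text of the record puts the active cut at -80%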
Target sequence (Q9GZU1 whole entry, looked up): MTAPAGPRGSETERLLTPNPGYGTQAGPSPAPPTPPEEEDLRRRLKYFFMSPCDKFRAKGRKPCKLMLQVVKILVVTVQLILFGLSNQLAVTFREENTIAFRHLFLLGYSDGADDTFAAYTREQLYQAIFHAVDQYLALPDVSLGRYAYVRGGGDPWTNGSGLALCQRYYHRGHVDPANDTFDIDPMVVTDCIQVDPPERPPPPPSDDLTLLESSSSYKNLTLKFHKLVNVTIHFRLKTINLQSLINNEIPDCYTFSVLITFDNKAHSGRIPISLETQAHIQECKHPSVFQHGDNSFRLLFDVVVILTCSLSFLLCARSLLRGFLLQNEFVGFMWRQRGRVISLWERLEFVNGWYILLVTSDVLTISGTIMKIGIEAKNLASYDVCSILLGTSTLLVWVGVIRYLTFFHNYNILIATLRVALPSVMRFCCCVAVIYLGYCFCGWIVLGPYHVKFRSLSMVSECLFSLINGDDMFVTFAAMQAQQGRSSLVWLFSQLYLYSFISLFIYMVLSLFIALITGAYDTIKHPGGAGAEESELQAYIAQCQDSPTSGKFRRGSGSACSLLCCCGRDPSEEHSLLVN
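Calcium fluorescence in TRPML1-DL cells induced overnight with Tet: a 110 s read after compound pin addition, then a 110 s antagonist read after challenge with 54-4 at 4 uM final (EC80).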
TRPML1 agonist: agonists of human TRPML1 channel; activation, % (concentration not given with the values); Q9GZU1; hit rate 0.12% among 410,000; TRPML1-expressing cells, Ca2+ dye fluorescence, FDSS; host cell line not named in the record; reference of the full effect not given here; AID 624414; in the data active = activation above about 50%; inconclusive = about 30% to 50%; inactive = below about 30%; also: 0% is about no effect; the text of the record puts the active cut at 80%
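In this qHTS format, compounds were pin-transferred onto Ca8-dye-loaded TRPML1-DL cells induced with Tet overnight, and intracellular Ca2+ fluorescence was recorded kinetically for 110 s after a 10 s baseline. A subsequent 4uM final 54-4 (EC80) addition followed by a second 110 s read served as the antagonist phase.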
CtBP-E1A blk: CtBP/E1A binding inhibition; hit rate 0.49% among 340,000; AlphaScreen GST-E1A/His-CtBP binding, 1536-well; hits give low values; control for the full effect not named in the record; activity change, % (no concentration beside the values); in the data active means activity change below about -65%; inconclusive means about -30% to -65%; inactive means above about -30%; also: % is scaled to controls: 0 for no effect and ±100 for the full control effect; compound concentration not given in the record
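In 5 uL wells, 23 nL compound meets equimolar GST-E1A and His-CtBP (5X stock 125 nM each) for 2 h, 37 °C. Beads (5X, 50 ug/mL) then 1 h, 37 °C, dark.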
TRPV1 PAM: human TRPV1 potentiation | TRPV1-expressing cells, Fluo-8 calcium influx, capsaicin EC20 potentiation; host cell line not named in the record; control for the full effect not named in the record | hit rate 0.02% among 320,000 | potentiation, % at 8.33 µM; active means potentiation above 80%; inconclusive means 30% to 80%; inactive means below 30%; also: 0% is about no effect
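TRPV1-expressing cells were cultured overnight at 35.5C and loaded with Fluo-8 calcium dye for 40 to 90 min at room temperature. After a 10 s baseline, compound was added and calcium influx was read kinetically for 3 min (ex 480/em 520 nm).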
The depositor's hits bear a star; ? = inconclusive; · = not tested or not shown; & = joins results of further samples.

SMILES | D2 potentiator | Six1-Eya2 blk | TRPML1 blocker | TRPML1 agonist | CtBP-E1A blk | TRPV1 PAM
CCOC(=O)c1nc(-c2ccc3c(c2)OCO3)[nH]c1C | -12.8 | -11.4 | -1.0 | -0.4 | ? | 23.9
CCOC(=O)c1c(-c2ccc(OC)cc2)oc2cc(Br)c(O)cc12 | 2.2 | -4.3 | 20.8 | 1.5 | · | 11.5
CC(=O)c1sc(N/N=C/c2cccc([N+](=O)[O-])c2)nc1C | -6.0 | 12.8 | 16.8 | 2.6 | -1.9 | -4.2
CCN(CC)S(=O)(=O)c1cccc(-c2nnc(SCC(=O)NC)n2N)c1 | 0.4 | 1.2 | -14.4 | 0.7 | · | -4.0
CC[C@]12c3[nH]c4cc(CCC(=O)N(C)C)ccc4c3CCN1C(=O)[C@@H](CC(=O)NCc1cccc(C(F)(F)F)c1)C[C@@H]2C(=O)N1CCN(C(=O)c2ccco2)CC1 | -3.0 | 4.5 | 37.0 | 1.6 | 0.4 | ·
O=C(COC(=O)c1cccs1)NCc1ccc2c(c1)OCO2 | 8.8 | 4.5 | 0.9 | -1.0 | -1.6 | -10.9
CCOC(=O)C(C)Sc1nc(=O)n2cccc(C)c2n1 (stereo unspecified) | -8.4 | 4.0 | 22.7 | 0.0 | -0.3 | 2.7
CCCCn1c(N)c(N(CCOC)C(=O)C2CCN(C(=O)c3ccc(Cl)cc3)CC2)c(=O)[nH]c1=O | -23.3 | 9.9 | -11.1 | -0.5 | -9.3 | -6.2
CN(C)c1ccc(/C=N/NC(=O)CCC(=O)NCc2ccccc2)cc1 | -1.8 | -13.2 | ? | -0.6 | -0.1 | 4.8
CC(=O)Nc1cccc(C(=O)OC(C)C(=O)Nc2ccc(S(=O)(=O)N3CCCC3)cc2)c1 (stereo unspecified) | -1.2 | -2.8 | 5.8 | 2.3 | 3.9 | 14.7
Cc1cc(C)c(NC(=O)COC(=O)Cc2ccsc2)c(C)c1 | 1.2 | -0.5 | -5.0 | 3.0 | 12.8 | -3.1
Cc1ccc(N2C(=O)N(CC(=O)Nc3ccc(C)cc3Cl)C(=O)C2C)cc1 (stereo unspecified) | 1.5 | -2.6 | 11.3 | 0.1 | 8.7 | -6.1
O=C(CN1CCN(C(=O)c2cccc(F)c2)CC1)Nc1ccccc1F | -2.5 | 7.6 | -8.6 | 0.0 | 12.8 | -22.6
Oc1c(C(Nc2nccs2)c2ccc(C(F)(F)F)cc2)ccc2cccnc12 (stereo unspecified) | 15.5 | ? | -10.1 | 1.8 | ? | 12.9
COc1cccc(N2[C@@H](CC(=O)O)c3ccccc3S2(=O)=O)c1 | -6.6 | 1.3 | 22.3 | 0.2&-0.5 | -0.6 | ·
C[C@@H]1C(c2cccc(Cl)c2)=NN(c2ccccc2)[C@H]1C(=O)N1CCOC1=O | · | 106.7 | 0.8 | 0.1 | 88.9 | ·
CCOC(=O)CCS(=O)(=O)c1nc(-c2ccccc2)cc(C(F)(F)F)n1 | -52.9 | -13.9 | -5.5 | 0.3 | 7.5 | -9.8
CCCCN(CCCNC(=O)C1CCCN(S(=O)(=O)CCC)C1)Cc1ccccc1 (stereo unspecified) | -3.3 | 4.9 | 2.7 | 3.5 | 4.1 | -2.0
COc1ccccc1N(CC(=O)NC(C)(C)C)C(=O)Cn1nnc(-c2ccc(C)o2)n1 | -1.6 | -1.2 | -9.4 | 2.9 | -2.6 | -6.6
CCOc1ccc(NC(=O)N2CC=C(n3c(=O)[nH]c4ccccc43)CC2)cc1 | ? | -2.6 | 5.0 | -1.8 | 2.3 | -6.5
COc1cc(/C=C(\C#N)C(=O)NC(C)C)ccc1OCc1ccc(C(=O)O)cc1 | -1.2 | -0.9 | 4.5 | 1.2 | -73.2* | ·
COc1cc(OC)c(C(=O)OCC(=O)NC23CC4CC(CC(C4)C2)C3)cc1OC | -5.7 | -0.5 | -15.7 | 0.2 | 16.2 | ·
O=S1(=O)CCN2C(Cc3ccc(SC(F)F)cc3)=CSC2=N1 | 1.9 | 8.9 | -1.1 | 0.7 | -1.2 | 27.9
CCCC1=Nc2cc(C(=O)N3CCC(C(N)=O)CC3)ccc2Sc2ccccc21 | -7.5 | 5.1 | 13.9 | 0.2 | 1.9 | -15.6
Cc1ccc(Sc2ncccc2NC(=O)c2ccccc2Cl)cc1 | -6.6 | -8.9 | 0.6 | -0.6 | 9.4 | -5.0
Nc1nc(Nc2ccccc2F)nc(N2CCOCC2)c1[N+](=O)[O-] | -5.4 | -6.2 | -3.5 | -0.8 | -3.6 | -1.7
Cc1c(C=O)c(C=O)c(C)n1Cc1ccccc1 | -3.0 | -3.9 | 15.6 | -1.0 | 0.2 | -4.7
O=C(NCC1CCCO1)C(=Cc1cccc([N+](=O)[O-])c1)C(=O)NCC1CCCO1 (stereo unspecified) | -3.1 | 5.7 | -19.2 | 1.4 | 0.0 | -2.9
CC1CN(c2ccc([N+](=O)[O-])cc2C#N)CC(C)O1 (stereo unspecified) | 0.4 | -1.8 | -0.1 | -0.3 | 0.7 | -15.3
S=c1[nH]nc(-c2ccncc2)n1/N=C/C(Cl)=C\c1ccccc1 | -17.6 | -16.0 | 19.2 | 1.4 | · | 4.6
COc1ccc(N2CCN(C(=O)c3oc4c(c3C)C(=O)CCC4)CC2)cc1 | 3.9 | 15.7 | 4.8 | 0.0 | 6.0 | 4.9
CCOc1ccc(C=O)cc1CN1CCCCC1 | 10.5 | 4.4 | -8.5 | -0.4 | 8.7 | -1.2
CC(CC(=O)Nc1ccc2c(c1)c(=O)n(C)n2Cc1ccc(F)cc1)c1ccccc1 (stereo unspecified) | -1.9 | -2.0 | 32.7 | 0.5 | 2.6 | ·
O=C(c1ccc2oc(CCCc3ccccc3)nc2c1)N1CCCC(CCCO)C1 (stereo unspecified) | -2.6 | 1.9 | 5.0 | 0.9 | 1.7 | -5.0
COc1ccc(CCNC(=O)c2oc3ccccc3c2C)cc1 | 0.4 | 10.5 | -5.7 | 1.7 | · | 5.8
CC(OC(=O)CN1C(=O)c2ccccc2C1=O)C(=O)NC1CCCCC1C (stereo unspecified) | -8.9 | 8.5 | 6.1 | 0.4 | -18.4 | -30.1
Cc1ccc(CN(C)C(=O)CSc2nnc3n2CCCCC3)c(C)c1 | -6.6 | 10.0 | 3.1 | 0.1 | -0.5 | 11.4
Cc1nc(-c2ccccc2)sc1-c1nc(-c2cccnc2)ncc1S(=O)(=O)c1ccccc1 | -9.4 | 3.0 | 7.9 | -0.2 | -4.8 | -1.4
O=C1CC(c2ccccc2)C(=O)N1c1cccc(O)c1 (stereo unspecified) | 13.7 | 2.2 | 16.2 | 0.9 | 8.7 | 5.8
CCCN(CC(=O)Nc1ccccc1OC)C(=O)CCC(=O)c1ccc(F)cc1 | -5.0 | -1.5 | 8.3 | -1.1 | 10.4 | -6.9
O=C(c1ccccc1)N1CCN(c2ccc([N+](=O)[O-])c(NCC3CCCO3)c2)CC1 (stereo unspecified) | 12.0 | -9.7 | 63.2 | 3.0 | -9.5 | -5.3
COc1ccc(C(=O)[C@H]2[C@H]3C(=O)N(c4ccc(C)cc4)C(=O)[C@H]3C3C=CC=NN32)cc1 (stereo partly specified) | 0.0 | 8.4 | 1.9 | -0.4 | 9.6 | -3.5
CCCCn1c(N)c(N(CC(C)C)C(=O)c2cnccn2)c(=O)[nH]c1=O | -5.7 | 4.9 | -7.0 | -0.2 | 24.6 | 1.5
COC(=O)c1ccc(NC(=O)CCN2C(=O)CSC2=O)cc1 | -2.5 | 1.8 | -10.0 | -0.2 | 1.5 | 5.5
COc1ccc(-c2nn(-c3ccccc3)cc2/C=C/C(=O)O)cc1[N+](=O)[O-] | -14.2 | -4.3 | -12.7 | 0.5 | · | ?
CC1CCN(C(=O)c2ccc(N(C)S(C)(=O)=O)cc2)CC1 | -5.8 | -11.8 | -6.0 | -0.6 | -5.7 | -3.1
CCNC(=O)C1(C)CCN1Cc1cc(-c2ccccc2)n(C)n1 (stereo unspecified) | -11.6 | -2.2 | 3.7 | 0.7 | 0.9 | ·
O=C(NCc1ccccn1)[C@@H]1CCCN1C(=O)[C@@H]1CCCN1C(=O)c1cccc2ccccc12 | · | 2.2 | · | -0.2 | -8.7 | ·
CON/C=C(\C=Nc1ccc(C(F)(F)F)cc1)c1ncc(C(F)(F)F)cc1Cl | -3.0 | 2.7 | -5.2 | -0.3 | -1.0 | -7.9
COc1ccccc1CNC(=O)CCS(=O)(=O)c1ccc2c(c1)CCCN2C(C)=O | -8.0 | -3.1 | -5.9 | -1.1 | 2.3 | -11.2
C=C1N(c2ccccc2)C(=O)OC1(C)C | -12.2 | 11.0 | 6.8 | 0.4 | -18.9 | -9.4
CCOc1cc2[nH]c(=S)n(CCCN3CCN(C)CC3)c(=O)c2cc1OCC | -35.5 | -0.4 | · | · | 3.5 | ·
CSc1cccc(NC(=S)N2CCC(N(C)C(C)C)CC2)c1 | 8.6 | 6.8 | 2.8 | -0.6 | -1.7 | -2.8
CC12CCC(C(=O)NNc3ccc([N+](=O)[O-])cc3)(OC1=O)C2(C)C (stereo unspecified) | -5.0 | 0.5 | 26.7 | -0.9 | 5.0 | -15.5
Cc1oc2ccc(OCc3ccccc3Cl)cc2c1C(=O)O | -4.0 | -10.8 | -25.8 | 3.2 | -9.1 | 13.2
Cc1sc(NC(=O)c2ccco2)c(C(c2cccnc2)N2CCN(C)CC2)c1C (stereo unspecified) | -18.8 | -3.9 | -5.2 | 1.3 | -6.7 | -16.5
O=C(O)C1CCCCC1C(=O)Nc1cccc(C(=O)N2CCCCC2)c1 (stereo unspecified) | -0.1 | 17.5 | 40.5 | 0.0 | 58.2 | 1.8
COc1cccc(C(=O)Nc2c(C)nn(-c3ccccc3)c2C)c1 | -4.1 | 8.2 | 10.3 | 0.5 | 17.2 | 8.5
O=C(CN1CCOCC1)Nc1ccccc1 | -2.4 | -2.7 | 16.0 | -0.5 | 0.7 | 2.2
COc1ccc(C(=O)NCCN2C(=O)S/C(=C\c3cccnc3)C2=O)cc1[N+](=O)[O-] | 3.7 | -1.5 | 10.2 | -0.7 | -5.9 | 0.5

Entries of single compounds from above.
`Cc1oc2ccc(OCc3ccccc3Cl)cc2c1C(=O)O` as listed: D2 potentiator = -4.0; Six1-Eya2 blk = -10.8; TRPML1 blocker = -25.8; TRPML1 agonist = 3.2; CtBP-E1A blk = -9.1; TRPV1 PAM = 13.2
`COc1ccccc1CNC(=O)CCS(=O)(=O)c1ccc2c(c1)CCCN2C(C)=O` as listed: D2 potentiator = -8.0; Six1-Eya2 blk = -3.1; TRPML1 blocker = -5.9; TRPML1 agonist = -1.1; CtBP-E1A blk = 2.3; TRPV1 PAM = -11.2
`O=C(CN1CCOCC1)Nc1ccccc1` as listed: D2 potentiator = -2.4; Six1-Eya2 blk = -2.7; TRPML1 blocker = 16.0; TRPML1 agonist = -0.5; CtBP-E1A blk = 0.7; TRPV1 PAM = 2.2
